Screens as filed in PubChem BioAssay.
Rce1 inhib = yeast Ras-converting enzyme inhibition; calls only; AID 2563; yeast membranes, quenched prenylated peptide cleavage fluorescence; 290,000 compounds, 0.27% hits;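 active = fall in fluorescence gain of 50% or more versus controls, with final raw signal at or below 3038400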;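 also: plate controls were neutral control wells for no effect and wells lacking membranes for full effect; tested at 10 µM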
Target sequence (Q03530 whole entry, looked up): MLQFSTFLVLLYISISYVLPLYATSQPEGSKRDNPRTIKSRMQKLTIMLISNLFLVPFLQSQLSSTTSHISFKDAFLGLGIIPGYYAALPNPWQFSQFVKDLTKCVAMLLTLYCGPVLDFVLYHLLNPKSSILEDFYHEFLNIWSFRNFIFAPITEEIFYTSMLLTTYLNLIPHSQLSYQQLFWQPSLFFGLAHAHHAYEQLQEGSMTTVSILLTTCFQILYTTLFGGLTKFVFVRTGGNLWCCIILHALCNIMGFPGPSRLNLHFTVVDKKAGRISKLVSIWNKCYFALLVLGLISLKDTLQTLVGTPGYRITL
eIF4H inh = inhibitors of RNA binding by human eIF4H; 290,000 compounds, 0.94% hits; eIF4H fluorescence polarization binding assay; AID 2012; inhibition, % at 35 µM;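 active = 50% or more with normal probe brightness, or confirmed in later tests; about a fifth of its hits are not listed in these tables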;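 also: calls also rest on retests at 20 µM and on dose response follow-up; 0% = protein and probe with vehicle and 100% = probe without protein; strong numbers were not always called active; many hits fall short of the cut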
MT1-MMP act inh = MT1-MMP (human) activation inhibition; P50281; HT1080 RFP-PRO-GFP cells, GFP/RFP ratio fluorescence, overnight; percent of plate control window, DMSO zero; GFP/RFP ratio change, % at 20 µM; 360,000 compounds, 0.061% hits; AID 651647;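 active = GFP/RFP ratio change of at least 30% with cell ATP level not reduced by more than half and red fluorescence within 50% of control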; also: strong numbers were not always called active
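Assay system – RFP-PRO-GFP reporter HT1080 cells · Compound dosing – single dose of 20 µM compound, 1% DMSO final · Incubation – overnight compound exposure at 37 °C · Measure – GFP/RFP fluorescence ratio · Benchmarks – DMSO wells and RFP-L50D-GFP cells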
Yeast UUG start = yeast start codon fidelity modulation; S. cerevisiae UUG-firefly luciferase reporter, luminescence/redox ratio; activity score, % at 18.7 µM; 350,000 compounds, 0.13% hits;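 active = replicate mean at a twofold rise or more, about +100% in these data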;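 also: firefly luciferase made from a UUG start codon reports start codon fidelity; reporter light over untreated wells divided by growth signal over untreated wells; some hits fall short of that in this replicate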
PABP FP inh = blocks human PABP binding to poly(A) RNA; 290,000 compounds, 1% hits; fluorescence polarization; P11940; inhibition, % at 35 µM;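 active = 50% or more with normal probe brightness, or confirmed in later tests; about a fifth of its hits are not listed in these tables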;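 also: calls also rest on retests at 20 µM and on dose response follow-up; controls were probe without protein and protein plus probe with vehicle; some compounds called inactive have numbers as strong as hits; many hits fall short of the cut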
Env fusion inh = blocks HIV Env-driven cell-cell fusion; HeLa-JRFL Env/CEM21 cell fusion, luciferase; inhibition, % at 12.3 µM; 360,000 compounds, 1.1% hits;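 active = mean replicate inhibition score of at least 50 and every replicate individually at or above 50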;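 also: 0% = plate neutral controls and 100% = maraviroc near 300 nM; one replicate is shown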
CSC inhib = cancer stem cell inhibition | inhibition, % at 7.5 µM | cancer stem cell-like cells viability, luminescence | AID 2717 | 300,000 compounds, 1.1% hits;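 active = mean at 75% or more and at least half the replicates too; tested in HMLE shEcad cells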;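 also: 0% = median of negative and 100% = median of positive control wells; the first replicate is given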
eIF4H inh retest = second read-out of eIF4H inh, no call of its own (marks repeat the call); inhibition, %; compound at 20 µM; confirmation average;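 mean of two retest wells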
PABP FP inh retest = further read-out of PABP FP inh, marked with its call; inhibition, %; compound at 20 µM; confirmation repeats;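 mean of two retest wells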
MT1-MMP act inh RFP = recorded beside MT1-MMP act inh, whose call it bears; RFP signal change, %; measured here: RFP expression control read;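 0 = vehicle wells; hits needed this value within 50% of zero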
Starred values were filed as active, the others as inactive; i = inactive; x = not tested or not shown. These rows are one share of the data; rates above refer to the full screens.

SMILES	Rce1 inhib	eIF4H inh	MT1-MMP act inh	MT1-MMP act inh RFP	Yeast UUG start	PABP FP inh	Env fusion inh	CSC inhib	others
CCN1C(=O)C(CC(=O)Nc2ccc(OC)cc2)N(CCc2ccccc2)C1=S (stereo not given)	i	2	4	-6	x	8	6	15
NC(=O)c1ncc(C(F)(F)F)cc1Cl	i	-11	0	1	x	-12	3	-5
COCCCNC(=O)/C(C#N)=C/c1c(N2CCN(c3cccc(Cl)c3)CC2)nc2c(C)cccn2c1=O	i	-4	0	-5	8	-10	14	7
O=P(O)(COc1ccccc1)COc1ccccc1	i	-6	3	2	-15	-3	-10	-4
COc1ccc(COC(=O)N/N=C(\C)CC(=O)Nc2ccc(Cl)cn2)cc1	i	-11	-1	-1	-13	14	-6	-10
N#CCSc1ccc(S(=O)(=O)N2CCOCC2)cn1	x	x	0	4	-11	x	0	-14
COC(=O)c1cc(NC(=O)N2c3ccccc3Sc3ccccc32)cc(C(=O)OC)c1	i	-2	3	-7	-10	5	x	-18
CC(C)C(OC(=O)c1ccco1)C(=O)NCc1ccc2c(c1)OCO2 (stereo not given)	i	0	-3	0	-15	-1	-1	-6
O=C(CNc1ccc(C(F)(F)F)cc1)Nc1cccc(S(=O)(=O)N2CCCCC2)c1	x	x	-6	-26	-12	x	33	x
O=C(NCC(c1ccco1)N1CCc2ccccc21)c1ccc([N+](=O)[O-])cc1 (stereo not given)	i	x	3	-5	-14	x	-5	2

The last four compounds of the part before come first, to join the parts.
SMILES	Rce1 inhib	eIF4H inh	MT1-MMP act inh	MT1-MMP act inh RFP	Yeast UUG start	PABP FP inh	Env fusion inh	CSC inhib	others
COC(=O)c1cc(NC(=O)N2c3ccccc3Sc3ccccc32)cc(C(=O)OC)c1	i	-2	3	-7	-10	5	x	-18
CC(C)C(OC(=O)c1ccco1)C(=O)NCc1ccc2c(c1)OCO2 (stereo not given)	i	0	-3	0	-15	-1	-1	-6
O=C(CNc1ccc(C(F)(F)F)cc1)Nc1cccc(S(=O)(=O)N2CCCCC2)c1	x	x	-6	-26	-12	x	33	x
O=C(NCC(c1ccco1)N1CCc2ccccc21)c1ccc([N+](=O)[O-])cc1 (stereo not given)	i	x	3	-5	-14	x	-5	2
Cc1ccc([C@H]2C[C@@H](O)[C@H](n3cc(-c4ccc(F)cc4)nn3)CN2Cc2cccs2)cc1	x	x	-6	2	-4	x	-127	x
CCOC(=O)N1CCN(C(=O)CN(c2cc(Cl)ccc2OC)S(=O)(=O)c2ccccc2)CC1	i	0	-2	1	x	0	-47	-8
COc1ccc(CN2CCN(C(=O)c3cccc(OC)c3OC)CC2)cc1OC	i	2	2	2	-5	1	5	-11
Cc1ccc(SCC(=O)Nc2cccc(-c3nnc(-c4ccco4)o3)c2)cc1	i	-12	1	-21	x	1	x	3
O=C(Cn1ncc2c1-c1ccccc1OC2)Nc1ccc(Cl)cn1	i	-1	0	-4	-8	18	-1	-3
Brc1cc2c(cc1/C=N/Nc1nc(N3CCCC3)nc(N3CCOCC3)n1)OCO2	i	-7	4	2	-17	-3	1	-3
Cc1cccc(Nc2c([N+](=O)[O-])c(=O)oc3ccccc23)c1	i	15	-4	0	x	4	-2	0
CC(C)NC(=O)Cn1cc(C(=O)COc2ccccc2)c2ccccc21	i	0	5	4	-13	-5	9	x
CC1CN(C(=O)c2ccc(COc3ccc(C(C)C)cc3)o2)CC(C)O1 (stereo not given)	i	7	-1	-1	x	5	-36	-5
CCC(=O)N1CCc2cc(S(=O)(=O)CCC(=O)N3CCN(c4ccccc4)CC3)ccc21	i	-14	1	-1	-13	-2	-3	-18
COc1ccccc1NS(=O)(=O)c1ccc(C(=O)OCC(=O)NCc2ccco2)cc1	i	35	-2	0	3	1	x	0
Cc1sc(NC(=O)CCCC(=O)O)c(C(N)=O)c1-c1ccccc1	i	73	1	-1	x	127	19	-3	eIF4H inh retest=0;PABP FP inh retest=13
O=C(CNS(=O)(=O)c1cccc2nsnc12)NCc1ccc(Cl)cc1	i	-2	-2	-1	8	-3	-162	-14
NC(=O)c1c(Nc2nc3c(F)cccc3s2)sc2c1CCCC2	i	73*	2	64	x	-15*	-23	25	eIF4H inh retest=99*;PABP FP inh retest=74*
O=S(=O)(NC1CCCC1)c1ccc(S(=O)(=O)N(Cc2cccs2)CC2CCCO2)cc1 (stereo not given)	i	-3	-6	-3	8	-6	x	45
CC(C)N(Cc1ccccc1)C(=O)CN1C(=O)NC2(CCCC2)C1=O	x	x	2	1	-16	x	-21	-4
COc1cccc(-c2sc3ccc(OC)cc3c2-c2cc(F)cc(OC)c2)c1	x	x	-1	-5	20	x	-20	25
Clc1ccc2nc(COc3ccccc3)[nH]c2c1	i	-8	0	-9	-12	-6	-159	41
CN1c2ccccc2C(O)=C(C(=S)Nc2ccc(F)c(Cl)c2)S1(=O)=O	i	-14	2	-6	-14	-9	-19	41
O=S(=O)(Nc1cc(Cl)ccn1)c1ccc(Cl)cc1	i	-3	3	3	5	-14	-5	0

By substructure: the entries above containing a furan ring, fused or not
SMILES	Rce1 inhib	eIF4H inh	MT1-MMP act inh	MT1-MMP act inh RFP	Yeast UUG start	PABP FP inh	Env fusion inh	CSC inhib	others
CC(C)C(OC(=O)c1ccco1)C(=O)NCc1ccc2c(c1)OCO2 (stereo not given)	i	0	-3	0	-15	-1	-1	-6
O=C(NCC(c1ccco1)N1CCc2ccccc21)c1ccc([N+](=O)[O-])cc1 (stereo not given)	i	x	3	-5	-14	x	-5	2
Cc1ccc(SCC(=O)Nc2cccc(-c3nnc(-c4ccco4)o3)c2)cc1	i	-12	1	-21	x	1	x	3
CC1CN(C(=O)c2ccc(COc3ccc(C(C)C)cc3)o2)CC(C)O1 (stereo not given)	i	7	-1	-1	x	5	-36	-5
COc1ccccc1NS(=O)(=O)c1ccc(C(=O)OCC(=O)NCc2ccco2)cc1	i	35	-2	0	3	1	x	0

Following part:
SMILES	Rce1 inhib	eIF4H inh	MT1-MMP act inh	MT1-MMP act inh RFP	Yeast UUG start	PABP FP inh	Env fusion inh	CSC inhib	others
CSC(=NC#N)N1CCN(c2ccc([N+](=O)[O-])cc2)CC1	i	-8	8	-8	-4	-9	-6	-15
CC(C)CN(C(=O)c1ccc(S(=O)(=O)N2CCCC2)cc1)C1CCS(=O)(=O)C1 (stereo not given)	i	x	1	2	-14	x	x	-4
Cc1cc(Oc2ccccc2)nc(SCC(=O)Nc2ccccc2)n1	i	1	3	-11	-9	6	20	3
O=C(c1cc(COc2ccc(F)cc2Cl)on1)N1CCCC(c2ccccc2)C1 (stereo not given)	x	2	5	-4	x	11	7	26
CCCOP(=O)(OCCC)c1nc(-c2ccccc2)oc1NCc1ccccc1	i	0	-9	-11	1	-6	40	23
O=C(C[C@H]1C(=O)N(CCc2ccccc2)C[C@@H]1Cc1ccccc1)Nc1ccccc1	i	0	1	-6	-4	1	-10	-20
CCc1ccc(NC(=S)N2CCCC(C(F)(F)F)C2)cc1 (stereo not given)	i	2	3	-1	-22	3	1	-2
C(#CC1CCCC1)c1ccc2c(c1)COc1c3ccccc3nn1-2	i	0	8	-4	-4	9	-227	54
CCCCn1c(SCC(N)=O)nnc1-c1cc(OC)c(OC)c(OC)c1	i	-5	x	x	x	-2	x	x
CC(NCC(=O)Nc1cc(S(=O)(=O)N2CCOCC2)ccc1Cl)c1ccc(Cl)cc1Cl (stereo not given)	i	x	-10	-15	3	x	7	30
CCOc1ccc2ccccc2c1/C=N/NC(=O)CNC(=O)C(c1ccccc1)c1ccccc1	x	-6	2	-2	x	2	-6	23
O=C(Nc1ccc(N2CCCCC2)cc1)c1ccc(F)cc1F	i	-15	3	2	-23	-2	-159	-1
OC(CN1C2=NCCN2c2ccccc21)c1ccccc1 (stereo not given)	i	-2	-6	-2	-8	5	x	-5
O=C(NOCc1ccccc1)c1ccc(Cl)cc1	x	x	-2	3	-68	x	x	-12
CC(=O)c1ccc(NC(=O)C2CCN(S(=O)(=O)c3ccc4c(c3)N(C(C)=O)CCO4)CC2)cc1	i	-4	0	-2	2	-2	17	-4
Ic1ccc(N2CCN(Cc3c[nH]c4ncccc34)CC2)cc1	x	x	5	-4	-2	x	13	23
COc1ccc(C(=O)OCC(=O)NCCN2C(=O)CSC2=O)cc1[N+](=O)[O-]	x	x	0	1	-11	x	-7	-6
C/C(CC(=O)Nc1ccc(C)c(Cl)c1)=N\NC(=O)Cc1ccccc1	i	-6	0	-1	10	-6	20	-3
CCOc1cc(/C=C\[N+](=O)[O-])ccc1OCC(=O)N1CCOCC1	i	-4	1	-3	x	-2	-29	4
Cc1ccc(C)c(NC(=O)c2cc(-c3cc(C)ccc3O)n[nH]2)c1	i	-3	11	-1	-2	2	-47	28
O=C(CN1CC(=O)Oc2ccccc21)NCc1ccco1	i	6	-2	0	-13	-8	x	-1
c1ccc(C(Cc2nc(-c3ccncc3)no2)c2ccccc2)cc1	i	0	-4	-22	-17	2	34	8
O=C(Nc1ccccc1C(=O)N1CCNCC1)c1ccco1	i	0	x	x	x	0	x	8
CC1(C)Cc2c(sc3c2c(N)nc(=S)n3Cc2ccc(Br)cc2)CO1	i	-4	8	1	-4	-12	14	-4
COc1ccc(NS(=O)(=O)c2ccc(NC(=S)NC(=O)C(C)C)cc2)cc1	i	11	-2	-15	-2	6	x	-6
O=C(c1cc2nc(-c3ccco3)cc(C(F)(F)F)n2n1)N1CCN(c2ccc(F)cc2)CC1	x	3	-1	-1	8	-4	x	47
Cc1ccc(C(C#N)c2ccc3c(C(F)(F)F)cc(C(F)(F)F)nc3n2)cc1 (stereo not given)	i	-11	5	-3	x	-3	x	86*
O=C(Nc1ccc(C(=O)NCCCN2CCN(c3ccccc3)CC2)cc1)C1=CSCCO1	i	-11	9	-2	13	0	1	-6
Cc1[nH]c2ccccc2c1C(=O)CSc1nc2ccccc2[nH]1	i	6	9	-5	-19	-2	x	-12
Cc1nnc(OCC(=O)NCCC2=CCCCC2)c2ccccc12	i	4	2	-2	-14	5	x	1

Looked up by structure from the list above:
SMILES	Rce1 inhib	eIF4H inh	MT1-MMP act inh	MT1-MMP act inh RFP	Yeast UUG start	PABP FP inh	Env fusion inh	CSC inhib	others
COc1ccc(NS(=O)(=O)c2ccc(NC(=S)NC(=O)C(C)C)cc2)cc1	i	11	-2	-15	-2	6	x	-6
Cc1ccc(C(C#N)c2ccc3c(C(F)(F)F)cc(C(F)(F)F)nc3n2)cc1 (stereo not given)	i	-11	5	-3	x	-3	x	86*

Carrying on.
SMILES	Rce1 inhib	eIF4H inh	MT1-MMP act inh	MT1-MMP act inh RFP	Yeast UUG start	PABP FP inh	Env fusion inh	CSC inhib	others
Cc1ccc(/C=N/NC(=O)c2nnn(-c3nonc3N)c2-c2ccccc2)o1	i	4	-1	-2	-2	0	12	-16
CN(C)S(=O)(=O)c1ccc(C(=O)NCc2ccccn2)cc1	i	6	0	7	-29	-18	5	-12
O=C(O)Cc1coc2cc3c(cc12)CCC3	i	5	-1	2	-18	-14	-2	-10
CC(C)(C)OC(=O)N1CCC[C@H]1C(=O)O	i	0	-3	1	11	-6	-45	4
CCc1ccc(CNC(=O)C2CCCN(c3nc4ccccc4o3)C2)cc1 (stereo not given)	i	17	1	1	-3	4	11	-23
O=C(Nc1ccc2nc3ccccc3nc2c1)c1ccccc1	i	14	5	7	x	-25	-139	0
CCn1c(Oc2ccccc2F)nc2c1c(=O)n(C)c(=O)n2C	i	-4	-11	-8	5	4	58*	-8
CC(=O)c1ccc(N2CCN(c3ccc(S(=O)(=O)NCCN(C)C)cc3[N+](=O)[O-])CC2)cc1	i	-9	5	-4	x	-3	18	36
